High-throughput results deposited in PubChem by National Center for Advancing Translational Sciences (NCATS).
gsp antag: qHTS for Antagonists of gsp, the Etiologic Mutation Responsible for Fibrous Dysplasia/McCune-Albright Syndrome: qHTS; gsp-mutant cells, cAMP HTRF, 30 min; control for the full effect not named in the record; Potency, µM (titrated, usually from 76.9 µM), inactives show top-dose activity change, negative = inhibition, most hits filed as inhibitors; hit rate 0.4% among 340,000; active = falling curve of any shape with a large fitted effect; inconclusive = falling curve, mostly with a smaller effect; inactive = flat or rising curve; cell line not stated here;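 also: intracellular cAMP measured with PDE inhibitor Ro 20-1724 present during compound exposure; potency is read from the fitted curve at half-maximal effect; % is scaled to controls: 0 for no effect and ±100 for the full control effect; nearly all actives have a fitted effect of over 65% in size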
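G418-selected cells were plated in DMEM/10% FBS for 16-24 h at 37C, then treated with compounds plus the PDE inhibitor […] (300 uM solution added) for 30 min at 37C. Intracellular cAMP was measured by HTRF after 30 min lysis at room temperature.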
ClpP mod: qHTS Assay for Activators of ClpP; purified B. subtilis ClpP, FRET peptide cleavage, 20 min; AID 651965, 2013; Potency, µM (doses to about 57.5 µM), without a hit: at the highest dose activity change, negative = active; hit rate 1.9% among 340,000; active = well fitted falling curve with a large enough effect; inconclusive = small, poorly fitted or top-dose-only effect; inactive = no such curve, though single readings can be large or run the other way; also: potency is read from the fitted curve at half-maximal effect; the source files actives as falling curves though it sought activators and does not explain the sign; nearly all actives have a fitted effect of over 65% in size; many hits overshoot -100%
Target sequence (P80244 whole entry, looked up): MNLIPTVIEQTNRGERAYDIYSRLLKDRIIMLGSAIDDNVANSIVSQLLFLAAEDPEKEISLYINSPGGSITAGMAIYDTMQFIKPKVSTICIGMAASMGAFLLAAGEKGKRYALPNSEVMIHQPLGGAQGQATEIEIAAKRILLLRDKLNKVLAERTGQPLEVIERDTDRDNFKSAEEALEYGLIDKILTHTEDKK
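Buffer: 100 mM Tris/HCl pH8, 100 mM KCl, 0.05% low protease BSA, 2.5% glycerol, 0.01% Tween-20. ClpP 10 microg/mL final; 20 min RT; delta FRET normalized to ADEP and DMSO controls.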
CtBP-E1A blk: qHTS Assay for Inhibitors of the CtBP/E1A Interaction. CtBP / adenovirus E1A interaction (AlphaScreen). hit rate 0.49% among 340,000. activity change, % (no concentration beside the values). AlphaScreen GST-E1A/His-CtBP binding, 1536-well; hits give low values; control for the full effect not named in the record. AID 651724, 2012; in the data active means activity change below about -65%; inconclusive means about -30% to -65%; inactive means above about -30%; also: % is scaled to controls: 0 for no effect and ±100 for the full control effect; compound concentration not given in the record
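Steps: dispense buffer (Tris pH 8.0, NaCl 300 mM, TCEP 1 mM, BSA, Tween 20); add 5X protein mix (GST-E1A, His-CtBP, 125 nM each); pin 23 nL compound; 2 h at 37 °C, dark; add 5X beads (50 ug/mL); 1 h; read.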
Sfp PPTase inh: qHTS Assay for Inhibitors of Bacillus subtilis Sfp phosphopantetheinyl transferase (PPTase) | hit rate 3.5% among 310,000 | Potency, µM, without a hit: max response, negative = inhibition, actives largely listed as inhibitors | Biochemical Sfp PPTase activity, qHTS | AID 1490, 2009; active = well fitted inhibition curve with a large enough effect; inconclusive = small, poorly fitted or top-dose-only effect, or another doubt; inactive = no such curve, though single readings can be large or run the other way;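 also: the enzyme is Sfp with the accession as filed and its product quenches rhodamine fluorescence; potency is read from the fitted curve at half-maximal effect; 0% = enzyme reaction without inhibitor and -100% = no enzyme wells; top concentration of the series not given in the record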
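With Hepes-Na pH 7.6 buffer containing 10 mM MgCl2, Sfp (15 nM) modified BHQ-2-YbbR (12.5 uM) using rhodamine-CoA (5 uM). Two reads 30 minutes apart at 525/598 nm yielded each well's rate.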
gsp agonist: qHTS for Agonist of gsp, the Etiologic Mutation Responsible for Fibrous Dysplasia/McCune-Albright Syndrome: qHTS; Potency, µM (highest dose often 76.9 µM), for inactives: top-dose activation (cAMP increase), most hits filed as activators; hit rate 0.13% among 340,000; gsp mutant cells, cAMP HTRF, 30 min; control for the full effect not named in the record; active = well fitted activation curve with a large enough effect; inconclusive = small, poorly fitted or top-dose-only effect, or another doubt; inactive = no such curve, though single readings can be large or run the other way; cell line not stated here;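 also: phosphodiesterase inhibitor Ro 20-1724 added with compounds to block cAMP breakdown; potency is read from the fitted curve at half-maximal effect; nearly all actives have a fitted effect of over 60% in size; about a fifth of the inactives were tested at one dose only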
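Cells stably selected in G418 were plated at 2000/well, grown 16-24 hr, then given compounds in DMSO with the PDE inhibitor […] (300 uM solution added) for 30 min at 37C; cAMP was read by HTRF.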
Menin MLL FP FL: qHTS Assay for Inhibitors Targeting the Menin-MLL Interaction in MLL Related Leukemias: Competition With Fluorescein Labeled MLL-derived Peptide; Fluorescence polarization, fluorescein-MLL peptide displacement from menin; FP activity change, % at 61.4 µM; 290,000 tested, under 10 active; inconclusive = falling polarisation curve, or a change in total fluorescence; inactive = total fluorescence flat and polarisation flat or rising; no compound was filed as active; the % refers to the polarisation; negative = inhibition;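 also: % of control where 0% means no effect; inhibitors lower the polarisation; unlabelled MLL peptide was the positive control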
TRPV1 potentiator: HTS Assay for Compounds that Act as Potentiators of the Vanilloid Receptor 1. Transient receptor potential cation channel subfamily V member 1 (Homo sapiens), Q8NER1. TRPV1-expressing cells, Fluo-8 calcium influx, capsaicin EC20 potentiation; host cell line not named in the record; control for the full effect not named in the record. potentiation, % at 8.33 µM. hit rate 0.02% among 320,000; active means potentiation above 80%; inconclusive means 30% to 80%; inactive means below 30%; also: 0% is about no effect
Target sequence (Q8NER1 whole entry, looked up): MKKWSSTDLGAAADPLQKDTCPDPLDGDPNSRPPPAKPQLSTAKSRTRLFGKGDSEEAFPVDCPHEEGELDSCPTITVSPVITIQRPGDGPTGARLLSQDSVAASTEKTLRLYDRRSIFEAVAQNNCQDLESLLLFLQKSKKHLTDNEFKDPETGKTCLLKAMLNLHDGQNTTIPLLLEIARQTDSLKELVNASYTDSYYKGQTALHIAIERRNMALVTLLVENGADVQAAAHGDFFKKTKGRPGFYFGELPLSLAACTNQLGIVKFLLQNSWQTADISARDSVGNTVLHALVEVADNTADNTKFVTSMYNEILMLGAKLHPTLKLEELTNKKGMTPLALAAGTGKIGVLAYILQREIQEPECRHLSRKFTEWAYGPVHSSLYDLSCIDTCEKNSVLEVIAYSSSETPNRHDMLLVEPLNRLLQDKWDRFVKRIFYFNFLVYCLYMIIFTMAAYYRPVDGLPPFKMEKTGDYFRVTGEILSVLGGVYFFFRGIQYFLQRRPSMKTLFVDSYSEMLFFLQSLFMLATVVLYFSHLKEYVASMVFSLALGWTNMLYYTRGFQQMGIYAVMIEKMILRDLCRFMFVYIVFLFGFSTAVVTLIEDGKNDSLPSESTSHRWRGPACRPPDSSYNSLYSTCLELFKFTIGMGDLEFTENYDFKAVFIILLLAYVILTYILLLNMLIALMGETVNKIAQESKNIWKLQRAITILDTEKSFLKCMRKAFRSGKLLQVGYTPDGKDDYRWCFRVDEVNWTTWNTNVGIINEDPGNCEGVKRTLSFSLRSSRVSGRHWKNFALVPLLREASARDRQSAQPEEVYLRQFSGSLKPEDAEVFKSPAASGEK
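Cells expressing TRPV1 were dye-loaded with Fluo-8 and read kinetically: 10 s baseline, 3 min after compound (agonist portion), then 2 min after EC20 capsaicin (allosteric enhancer portion). Calcium-bound dye fluorescence at 480/520 nm.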
* marks the source's active call; other numbers are inactive results; ? = inconclusive; . = not tested or not shown; & = joins results of further samples; [ ] = dose if it differs, or a comment.

No.	SMILES	gsp antag	ClpP mod	CtBP-E1A blk	Sfp PPTase inh
1	CN(C)N1C(=O)CC(N2CCCC2)C1=O (stereo not given)	8%	.	0	?
2	CCCNS(=O)(=O)c1ccc(OCC(=O)N2CCN(c3ccccc3)CC2)cc1	3%	.	-3	5%
3	CC(=O)c1cccc(NS(=O)(=O)c2csc(C(N)=O)c2)c1	5%	0.5%	.	7%
4	COc1ccccc1Oc1nc([N+](=O)[O-])nn1CC(N)=O	16%	.	-6	-16%
5	CCCC(O)(CCC)C(=O)NNc1ccccc1	9%	-0.4%	14	14%
6	O=C(Nc1ccccc1)/C(=C\c1ccncc1)NC(=O)c1ccccc1	9%	-1.9%	-5	0%
7	CN(C)CCNC(=O)CCCNC(=O)Cn1cnc2sc3c(c2c1=O)CCCC3	18%	-0.1%	-4	6%
8	COC(=O)c1cc(C)ccc1/C=C1/Cc2c(C)cc(C)cc2C1=O	-20%	1.9%	3	.
9	O=C(Nc1ncc2c(n1)CC(c1ccccc1)CC2=O)c1ccco1 (stereo not given)	6%	-0.8%	1	4%
10	Cc1ccc(Cn2nc(C)c(NC(=O)CSc3n[nH]c(C)c3[N+](=O)[O-])c2C)cc1	11%	-0.6%	-3	-9%
11	CCOc1ccc2cc(C#N)c(SCC(=O)N3CCOCC3)nc2c1	-5%	25µM*	-8	-11%
12	CCCn1c(SCC(=O)NCc2ccco2)nc2c1c(=O)n(C)c(=O)n2C	3%	-0.3%	-2	16%
13	O=C(Nc1ccc2c(c1)OCO2)C1CC(=O)N(c2ccc(F)cc2)C1 (stereo not given)	-3%	.	-8	-5%
14	Cc1c(NC(=O)C(C)OC(=O)c2cccs2)c(=O)n(-c2ccccc2)n1C (stereo not given)	2%	1.6%	-3	17%
15	CCOc1ccc(Br)cc1S(=O)(=O)Nc1ccc(C(=O)Nc2ccccc2OC)cc1	-7%	2.0%	7	6%

No.	gsp agonist	Menin MLL FP FL	TRPV1 potentiator
1	-2%[15.4 µM]	2.6	-3
2	18%	1.0	0
3	?	-3.8	4
4	15%[15.4 µM]	-2.9	-5
5	-35%[inhibitor]	0.2	-12
6	39%	0.3	0
7	?	0.7	?
8	0%	.	.
9	1%	2.7	-25
10	1%	-1.1	2
11	4%	-0.5	5
12	?	2.5	-1
13	-15%	-2.5	-16
14	-67%[inhibitor]	1.8	0
15	-17%[15.4 µM]	5.9	0

In the list so far, 3 contain a thiophene ring, fused or not:
No.	SMILES	gsp antag	ClpP mod	CtBP-E1A blk	Sfp PPTase inh
3	CC(=O)c1cccc(NS(=O)(=O)c2csc(C(N)=O)c2)c1	5%	0.5%	.	7%
7	CN(C)CCNC(=O)CCCNC(=O)Cn1cnc2sc3c(c2c1=O)CCCC3	18%	-0.1%	-4	6%
14	Cc1c(NC(=O)C(C)OC(=O)c2cccs2)c(=O)n(-c2ccccc2)n1C (stereo not given)	2%	1.6%	-3	17%

No.	gsp agonist	Menin MLL FP FL	TRPV1 potentiator
3	?	-3.8	4
7	?	0.7	?
14	-67%[inhibitor]	1.8	0

More results follow.
No.	SMILES	gsp antag	ClpP mod	CtBP-E1A blk	Sfp PPTase inh
16	O=C(C1CCCN(Cc2ccc(F)cc2)C1)N1CCCCC1 (stereo not given)	9%	-0.5%	3	-20%
17	c1nc(NC2CCCC2)c2[nH]cnc2n1	-14%	0.5%&1.6%	7	-1%
18	COCCn1c(SCC(=O)N2CCCC2)nnc1-c1ccco1	11%	.	3	21%
19	O=C(NC1CCCC1)C1CC(=O)N(c2ccccc2)C1 (stereo not given)	8%	.	6	18%
20	Cc1sc(NC(=O)C2CCCC2)c(C#N)c1C	6%	-2.5%	0	?
21	Cn1nnnc1SCC(=O)Nc1ccccc1C(=O)NCc1ccccc1	5%	0.1%	0	7%
22	CCN(CC)C(=O)[C@H]1CC(CC(=O)NCCC2=CCCCC2)C(=O)N2CCc3c([nH]c4ccccc34)[C@]12C (stereo not given in full)	?	-5.0%	-3	.
23	Cn1nnnc1NCc1cccc(Cl)c1Cl	3%	.	4	13%
24	Cc1ccccc1OCCCn1c(=O)sc2ccccc21	-9%	-0.5%	59	-11%
25	Cc1cc(O)cc(O)c1C(=O)Cc1ccccc1	-7%	-2.5%	-4	10%
26	COc1ccc(Cn2cc([N+](=O)[O-])nc2C)cc1[N+](=O)[O-]	-10%	-3.1%	4	11%
27	CNS(=O)(=O)c1ccc(NC(=O)Nc2ccc3c(c2)OCO3)cc1	-9%	-2.8%	-25	-10%
28	CCOC(=O)c1sc(NC(=O)CSc2nnnn2-c2ccccc2)c(C(=O)OCC)c1C	0%	1.1%	1	7%
29	CCC(=O)NC(c1ccccc1)c1c(OC(C)=O)ccc2ccccc12 (stereo not given)	.	.	-2	-2%
30	COc1ccccc1N1CCN(S(=O)(=O)CCNC(=O)CC2CCCCC2)CC1	2%	1.1%	1	.

No.	gsp agonist	Menin MLL FP FL	TRPV1 potentiator
16	28%	-5.7	-10
17	-6%	-0.9	0
18	8%[15.4 µM]	5.3	-3
19	-29%	-3.2	-7
20	?	3.2	-8
21	4%	-2.8	11
22	.	.	.
23	29%[15.4 µM]	2.9	16
24	-30%[inhibitor]	3.8	-15
25	5%	8.3	6
26	13%[15.4 µM]	-0.1	5
27	6%	-0.3	-15
28	0%	-0.7	6
29	14%[15.4 µM]	0.4	-14
30	4%[15.4 µM]	.	6

Reprinted from the part before: 2 compounds, then new ones.
No.	SMILES	gsp antag	ClpP mod	CtBP-E1A blk	Sfp PPTase inh
29	CCC(=O)NC(c1ccccc1)c1c(OC(C)=O)ccc2ccccc12 (stereo not given)	.	.	-2	-2%
30	COc1ccccc1N1CCN(S(=O)(=O)CCNC(=O)CC2CCCCC2)CC1	2%	1.1%	1	.
31	Cc1ccc(-n2nc3c(=O)n(C(C)C(=O)NCc4ccco4)nc(C)c3c2C)cc1 (stereo not given)	-8%	-4.6%&-3.5%	-17	2%
32	CCOC(=O)c1cc2sccc2n1CC(=O)Nc1ccc(OC)c(OC)c1	-10%	-1.4%	-2	-10%
33	OCC1(Cc2cccc(F)c2)CCN(Cc2ccc3cccc(F)c3n2)CC1	8%	.	1	-1%
34	Cc1ccc(NC(=O)C2CCN(S(C)(=O)=O)CC2)cc1C	0%	-3.7%	5	9%
35	CN(CCNS(=O)(=O)c1ccc2c(c1)oc(=O)n2C)Cc1ccccc1	-4%	-0.2%	-3	22%
36	COC(=O)c1ccc2cn[nH]c2c1	.	-22%	3	.
37	CCOC(=O)CN1CCC(c2cc(-c3ccc(Cl)cc3)n[nH]2)CC1	-19%	-0.9%	0	-4%
38	CC1(C)Cc2cccc(OCC(N)=O)c2O1	9%	-1.1%	4	1%
39	COc1ccc(/C=C(/NC(=O)c2ccccc2)C(=O)N/N=C/c2ccncc2)c(OC)c1	-12%	-3.3%	-2	12%
40	Cc1ccccc1Nc1nccc(N(C)C)c1C#N	0%	.	9	1%
41	COCCNC(=S)Nc1cc2oc3ccccc3c2cc1OC	-19%	-8.5%	-4	9%
42	CCN1CCCC(OC(=O)c2cc(-c3ccccc3Cl)nc3ccccc23)C1 (stereo not given)	3%	1.5%	.	4%
43	Cc1ccc(Sc2ncccc2COC(=O)Nc2ccccc2)cc1	-7%	-1.1%	10	9%
44	C/C(=N/NC(=O)c1cccs1)c1cccc(N)c1	6%	.	-8	-2%
45	O=C(Nc1nccs1)c1cc2sccc2n1Cc1ccc(Cl)cc1	-9%	4.5%	2	4%

No.	gsp agonist	Menin MLL FP FL	TRPV1 potentiator
29	14%[15.4 µM]	0.4	-14
30	4%[15.4 µM]	.	6
31	-69%[inhibitor]	3.6	11
32	-11%	3.0	20
33	-6%	-3.2	-1
34	-3%	-3.4	-5
35	-24%	2.6	7
36	15%	.	.
37	0%	-11	11
38	-57%[inhibitor]	-6.2	18
39	10%[15.4 µM]	0.4	1
40	21%	3.6	-6
41	?	2.9	-6
42	-25%	-1.2	-6
43	-18%	1.2	1
44	-46%[inhibitor]	-0.3	-2
45	?	5.0	12

(listing goes on)
No.	SMILES	gsp antag	ClpP mod	CtBP-E1A blk	Sfp PPTase inh
46	CCC(=O)Nc1ccc(NC(=O)CSc2nnnn2C2CCCC2)cc1C	8%	.	9	6%
47	O=C(c1ccccc1)N1CCN(C(=O)N2CCCCC2)CC1	9%	0.1%	0	6%
48	Cc1cc(C(=O)CSc2nnnn2-c2ccccc2)c(C)n1CCc1ccccc1	17%	-0.1%	1	-14%
49	O=C(Nc1ccnn1C1CCN(C2CCCCC2)CC1)c1cccc(F)c1	11%	-3.3%	-14	10%
50	Cc1cnccc1CNC(=O)CC1C(=O)NCCN1CC(C)(C)C (stereo not given)	3%	.	6	-11%
51	CCn1nnc(NC(=O)c2cccnc2Cl)n1	13%	-1.9%	-2	15%
52	COc1ccc(NC(=O)CSCC(=O)Nc2cc(Cl)ccc2N2CCOCC2)cc1	-18%	-0.7%	12	.
53	CC(NC(=O)CN(c1cccc(C(F)(F)F)c1)S(C)(=O)=O)c1ccccc1 (stereo not given)	0%	-0.3%	0	8%
54	CCn1cc(CN2CCN(CCC(C)C)C(CCO)C2)c2ccccc21 (stereo not given)	8%	-10%	.	10%

No.	gsp agonist	Menin MLL FP FL	TRPV1 potentiator
46	9%	-0.7	16
47	-37%[inhibitor]	1.7	-8
48	4%	0.3	7
49	?	-9.6	-2
50	-24%	-26	5
51	-10%	2.7	8
52	-64%[inhibitor]	.	-1
53	-19%	-1.5	1
54	?	-0.2	19
